# VDR inh – vitamin D3 receptor (human) inhibition; Potency, µM, inactives show max response, negative = inhibition, actives largely listed as inhibitors; VDR-SRC2-3 peptide fluorescence polarization, 2 h; AID 504847; 0.93% of 400,000 active; P11473; active means well fitted inhibition curve with a large enough effect; inconclusive means small, poorly fitted or top-dose-only effect, or another doubt; inactive means no such curve, though single readings can be large or run the other way; further: series mostly up to about 120 µM
# Target sequence (P11473 whole entry, looked up): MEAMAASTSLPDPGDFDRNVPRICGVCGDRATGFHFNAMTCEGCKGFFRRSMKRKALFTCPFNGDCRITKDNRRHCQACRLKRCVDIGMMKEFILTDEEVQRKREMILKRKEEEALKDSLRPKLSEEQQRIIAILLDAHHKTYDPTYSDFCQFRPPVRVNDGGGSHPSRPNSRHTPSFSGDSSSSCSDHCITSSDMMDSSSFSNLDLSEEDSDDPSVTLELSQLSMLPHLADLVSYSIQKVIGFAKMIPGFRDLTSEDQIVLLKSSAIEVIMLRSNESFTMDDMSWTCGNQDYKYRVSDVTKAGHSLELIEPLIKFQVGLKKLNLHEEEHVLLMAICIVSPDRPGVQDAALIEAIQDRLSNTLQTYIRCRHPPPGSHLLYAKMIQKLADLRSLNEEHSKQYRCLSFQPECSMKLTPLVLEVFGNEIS
#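 After 23 nl compound addition and a short centrifugation, plates sat for 2 hours at ambient temperature; polarization of fluorescence then indicated loss of VDR binding to peptide SRC2-3.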
# * hit, by the source's call; ? = inconclusive; & = joins results of further samples; [ ] = another dose, or the depositor's remark. On the % scale 0 is the no-effect control and ±100 the full control effect; potency means the concentration at half of the fitted maximal effect. Some of the compounds tested (hit frequency here may not be typical).
SMILES,VDR inh
CN(CP(=O)(O)CCc1ccccc1)S(C)(=O)=O,-5%
O=C(Nc1ccccc1)ON=C1CCCC1,-8%
Cc1ccc(F)cc1NC(=O)C12CC3CC(C1)CC(n1cnc([N+](=O)[O-])n1)(C3)C2,?
CCC1(c2ccc(F)cc2)NC(=O)N(CC(=O)N2CCN(S(=O)(=O)c3ccc(Cl)cc3)CC2)C1=O (stereo not drawn),-4%
COc1ccccc1NC(=O)CC(c1ccc(OC(C)C)cc1)c1ccccc1OC (stereo not drawn),-9%
CCN(CC)S(=O)(=O)c1cc(NC(=O)CSc2nc3c(cc2C#N)C(=O)CC(C)(C)C3)ccc1C,-5%
O=C(c1cccc([N+](=O)[O-])c1)N1CCN(CCc2ccncc2)CC1,10%
O=S(=O)(c1ccccc1)N1CCN(C(=S)Nc2ccc(F)cc2)CC1,-4%
Cc1nnc(NC(=O)CSCc2cc(=O)c3ccc(C)c(C)c3[nH]2)s1,14%
CS(=O)(=O)c1ccc(CNC(=O)C2(C(F)(F)F)CC(CCCO)CCCO2)cc1 (stereo not drawn),-2%&0%
Brc1cccc(-c2nnc3sc(CN4CCCCC4)cn23)c1,-3%
O=C(CSc1nnc(-c2ccccc2)c(-c2ccccc2)n1)NCc1ccco1,-3%
Cn1cc(S(=O)(=O)N2CCCC2)cc1C(=O)N1CCN(c2cccc(Cl)c2)CC1,-21%&12%
COc1ccc(CCNC(=O)CCCn2c(=O)c3ccccc3n(Cc3cccc(Cl)c3)c2=O)cc1OC,7%
CCCCC(C(=O)NCCC(C)C)N(CCCN1CCOCC1)C(=O)c1snc(C(N)=O)c1N (stereo not drawn),-8%
CC(=O)N1CCc2cc(CNS(=O)(=O)c3ccc(Cl)s3)ccc21,12%
Cc1ccc(NC(=O)CN(C)S(=O)(=O)c2ccc3nc(C)sc3c2)c(C)c1,12%
O=C1C[C@H]2CCCCC(=O)N3CC[C@@H](C1)[C@@H]23,-16%&-3%
O=C1CC(C(=O)Nc2cccc(F)c2)n2c(nc3ccccc32)N1 (stereo not drawn),-6%
CCCOC(=O)c1c(-c2ccc(OC)cc2)oc2ccc(-c3ccc(OC)nc3)cc12,-29%
COc1ccccc1/C=C(/CC(=O)NCc1ccc2c(c1)OCO2)c1nc2ccccc2s1,8%
COc1ccc(/C=N/Nc2ncnc3c2[nH]c2ccccc23)c(OC)c1OC,-5%
O=C(c1ccccc1)N1CCN(c2nc3ccc([N+](=O)[O-])cc3s2)CC1,3%
CCC(CC)C(=O)N1N=C(c2ccc(NS(C)(=O)=O)cc2)CC1c1ccccc1 (stereo not drawn),-9%
COc1ccccc1Cn1c(C2CC(=O)N(c3ccccc3OC)C2)nc2ccccc21 (stereo not drawn),10%
O=C(CSc1ccccc1C(=O)O)NCc1ccco1,9%
Cc1cc(C)n2nc(C(=O)Oc3ccc4c(c3)OCO4)nc2n1,-14%
CN(Cc1ccccc1)C(=O)c1ccccc1Br,-4%
COC(=O)c1ccccc1NC(=S)N1CCC(N2CCCCC2)CC1,-17%
COc1ccc(CNC(=O)c2ccc(C)cc2)cc1,0%
O=C(O)c1ccc(NC(=O)c2ccc(Cl)cc2)c(NC(=O)c2ccc(Cl)cc2)c1,-3%
CC1=C(C(=O)Nc2cccc(C(=O)N3CCN(c4cccc(C(F)(F)F)c4)CC3)c2)SCCO1,-1%
CCCNC(=O)c1onc(CSc2cccc(OC)c2)c1C(=O)NCCC,0%
CC(C)CCNC(=O)CN(Cc1ccc2c(c1)OCO2)C(=O)Cn1nnc(-c2cccs2)n1,3%
Cc1cccc(C)c1NC(=O)C(C)c1ccc(-c2ccccc2)c(F)c1 (stereo not drawn),0%
COc1ccc(CCNC(=O)c2oc3ccccc3c2C)cc1,-8%
O=S(=O)(c1cccc(C(F)(F)F)c1)N1CCN(c2nc(-c3cccs3)nc3ccccc23)CC1,4%
O=c1ccc2c(OCCCCOc3ccccc3)c3ccoc3cc2o1,2%
Cc1ccc(N2CCN(CC(O)COc3cccc(C)c3)CC2)cc1 (stereo not drawn),-7%
CCc1ccc(CNC(=O)c2ccc(OC)c(OC3CCN(C(C)C)CC3)c2)nc1,-7%
CCOc1ccc(N2Nc3n[nH]c(N)c3N2)cc1,9%
COc1cc(/C=N/Nc2ccc(C)cc2)cc(Br)c1O,-1%
O=S(=O)(NC(=S)NC1CCCCC1)c1ccc(Br)cc1,-5%
COc1ccc(C(=O)COC(=O)CCN2C(=O)C3CC=CCC3C2=O)c(OC)c1 (stereo not drawn),12%
COc1ccc2cc(Br)ccc2c1CC(=O)NC(C)(C)C,-10%
Cc1ccccc1C(=O)Nc1nc(-c2cccnc2)cs1,1%
CN1CCN(c2ccc(NC(=O)c3cccc(OCc4ccccc4)c3)cc2)CC1,69%[activator]
Cc1ccc(C(C)(O)CS(=O)(=O)Cc2ccccc2)cc1 (stereo not drawn),-19%
CCOC(=O)C1=C(C)NC(=NC)SC1c1ccccc1 (stereo not drawn),-4%
CCc1cccc(NC(=O)c2cc3c(=O)[nH]c4ccccc4c3n2C)c1,4%

# Part of the list above, tab-delimited.
smiles	VDR inh
CCOC(=O)C1=C(C)NC(=NC)SC1c1ccccc1 (stereo not drawn)	-4%
CCc1cccc(NC(=O)c2cc3c(=O)[nH]c4ccccc4c3n2C)c1	4%
CCOc1ccc(N2Nc3n[nH]c(N)c3N2)cc1	9%
O=S(=O)(NC(=S)NC1CCCCC1)c1ccc(Br)cc1	-5%
CN1CCN(c2ccc(NC(=O)c3cccc(OCc4ccccc4)c3)cc2)CC1	69%[activator]

# Following part:
SMILES,VDR inh
CCSc1oc(-c2cccs2)nc1S(=O)(=O)c1ccc(Br)cc1,13%
Cn1cnnc1SCC(=O)Nc1ccc(F)cc1F,-1%
Cc1nn2c(-n3ccnc3C)c3c(nc2c1-c1ccccc1)CCC3,-4%
COc1ccc(C2Nc3ccccc3C(=O)N2NC(C)=O)cc1OC (stereo not drawn),?
Cc1ncoc1C(=O)N1CCCC(C(=O)c2cccc3ccccc23)C1 (stereo not drawn),-16%
COc1ccc(CCNC(=O)CCc2cn(Cc3ccc(C)cc3)c3ccccc23)c(OC)c1OC,2%
Cc1ccc(NC(=O)COC(=O)c2c(-c3ccccc3)noc2C)c(C)c1,-12%
Cc1ccc(-c2noc(C3CCCN(C(=O)c4ccc(Cl)cc4)C3)n2)o1 (stereo not drawn),9%
Cc1onc(-c2ccccc2Cl)c1C(=O)OCC(=O)N1CCN(c2ccccc2)CC1,-12%
CC(CCC(=O)O)C1CCC2C3CC(O)C4CC(O)CC[C@]4(C)C3CCC12C (stereo partly drawn),-24%
Cc1cccc(-c2nc3c(cnn3-c3ccccc3)c(=O)n2-c2ccc(Cl)cc2)c1,10%
O=C(COc1ccc(Cl)cc1)NCCSCc1ccccc1Cl,-16%
Cc1cccnc1NC(=O)c1cccc(S(=O)(=O)N2CCCC2)c1,-3%
Cc1ccc(S(=O)(=O)NCCC(=O)OCC(=O)NC(=O)c2cccn2C)cc1,5%
CC(C)c1nnc(NC(=O)c2cc3cc(Br)ccc3oc2=O)s1,2%
COc1cc(OC)cc(C(=O)OCc2ccc([N+](=O)[O-])cc2)c1,16%
CCNC(=O)COC(=O)c1[nH]c(C)c(C(=O)OC)c1C,-14%
CSc1ccc(-c2nnn(Cc3ccc(Br)cc3)n2)cc1,2%
CCOC(=O)C(C)(C)Sc1ncnc2nc[nH]c12,6%
CN1C=CC=C/C1=C1\SC(=S)N(Cc2ccccc2)C1=O,1%

# Sorted by length of the SMILES (ascending): 5 of the compounds above
SMILES,VDR inh
CCOC(=O)C(C)(C)Sc1ncnc2nc[nH]c12,6%
COc1cc(/C=N/Nc2ccc(C)cc2)cc(Br)c1O,-1%
Brc1cccc(-c2nnc3sc(CN4CCCCC4)cn23)c1,-3%
Cc1ncoc1C(=O)N1CCCC(C(=O)c2cccc3ccccc23)C1 (stereo not drawn),-16%
O=C(c1cccc([N+](=O)[O-])c1)N1CCN(CCc2ccncc2)CC1,10%

# Other structures
SMILES,VDR inh
CCOc1ccc(NC(=O)CN2C(=O)CSc3ccc(S(=O)(=O)N4CCCC4)cc32)cc1,-1%
O=C(NCCCc1ccccc1)c1cccc([N+](=O)[O-])c1,-2%
CCCCOc1ccc2c(c1)C(=O)c1cc(O)ccc1-2,-19%
CCN(CC)C(=O)C(=O)N/N=C/c1cccs1,-5%
CC(C)(Sc1cc(C(C)(C)C)c(O)c(C(C)(C)C)c1)Sc1cc(C(C)(C)C)c(O)c(C(C)(C)C)c1,-12%&-6%
C(=N\n1cnnc1)/c1ccccc1OCCOc1ccccc1,-3%
Cc1cc(C)c2oc(C(=O)Nc3ccc(S(=O)(=O)N4CCC(C)CC4)cc3)cc(=O)c2c1,-3%&-1%
COc1ccc(CCNC(=O)CCc2c(C)nc3c(c(C)nn3-c3ccccc3)c2C)c(OC)c1,1%
COc1cc(OC)cc(-c2c(C#Cc3ccsc3)c3cc(-c4ccc(OC)c(F)c4)ccc3n2C)c1,13%
COc1ccc(CN2CCN(C(=O)c3ccc(S(=O)(=O)NCc4ccco4)cc3)CC2)cc1,-6%
COc1ccc(N2CCN(CCCNC(=O)c3cnn(-c4ccc(F)cc4)c3-n3cccc3)CC2)cc1,1%
CCN1CCN(CC(O)COc2ccc(Cl)cc2)CC1 (stereo not drawn),-4%
Clc1ccc(-c2nc(Cc3ccccc3Cl)no2)cc1,2%
COc1ccc(NC(=O)/C(C#N)=C/c2ccc(Sc3nncn3C)c([N+](=O)[O-])c2)cc1,?
CCOC(=O)c1c(NC(=S)NCCc2ccccc2)sc2c1CC(C(C)C)OC2 (stereo not drawn),-13%
CC(=O)c1ccc(NC(=O)CSc2nnc(Cc3cccn3C)n2-c2ccc(F)cc2)cc1,-11%
Cc1ccc(-c2[nH]nc3c2C(c2ccccc2OC(=O)N2CCOCC2)C(C#N)=C(N)O3)cc1 (stereo not drawn),3%
O=C(Nc1cc(Cl)ccc1O)c1cc(-c2ccco2)on1,11%
CCc1ccc(C(=O)c2cn(CC(=O)Nc3ccc(F)cc3)c3ccc(OC)cc3c2=O)cc1,-4%
Cc1cccc(N2CCN(C(=O)c3cnn4c(C(F)F)cc(-c5ccccc5)nc34)CC2)c1C,-6%
COc1ccc(N(CC(=O)NCCc2ccccc2)C(=O)CCC(=O)Nc2nccs2)cc1,13%
Cc1cccc(NC(=O)CSc2nc3ccccc3nc2N2CCOCC2)c1C,-16%
COC(=O)c1nc(N)sc1-c1ccc(OC)cc1,-9%
NC1=NC(=O)C2(COC(c3cccc([N+](=O)[O-])c3)OC2)S1 (stereo not drawn),5%
COc1ccc(-c2nc(N)nc(C(F)(F)F)c2-c2ccccc2OC)c(O)c1,1%
COc1cc2c3c(c1)C(C)CC(C)(C)N3C(=O)C2=O (stereo not drawn),-26%
CCOC(=O)C1CCCN(c2nc3ccccc3nc2C(C#N)C(=O)OC(C)C)C1 (stereo not drawn),-13%
CCN(CC)CCCN(Cc1cc2cc(OC)c(OC)cc2[nH]c1=O)C(=O)Nc1ccccc1,2%
CCCn1c(SCC(=O)Nc2cc(C)on2)n[nH]c1=O,-5%
COc1ccc(NC(=O)COc2ccc(C(=O)OCC(=O)N(C(C)C)C(C)C)cc2OC)cc1,-8%
Cc1ccc(CNC(=O)CCc2nnc3n(C)c(=O)c4sccc4n23)cc1,-12%
COc1ccccc1NC(=O)Nc1nc(CC(=O)NCc2cccnc2)cs1,-4%
CCOc1cc(N2C(=O)CC3CS(=O)(=O)CC32)c(OCC)cc1NC(=O)c1ccccc1 (stereo not drawn),?
Cc1cc(=O)c(C(=O)N[C@@H](C(=O)N[C@@H]2C(=O)N3C(C(=O)O)=C(CSc4nnnn4C)CS[C@H]23)c2ccc(O)cc2)c[nH]1,?
CC(=O)N1CCN(C(c2ccccc2)c2ccccc2)CC1,-7%
COc1ccc(N2CCN(C(=O)C3CCN(S(=O)(=O)c4cccc5nonc45)CC3)CC2)cc1,0%
CC(=O)c1ccc(NC(=O)COc2ccc3c(c2)OCO3)cc1,-10%
CCOC(=O)c1ccc(S(=O)(=O)NNC(=O)COc2cccc(C)c2)cc1,-12%
CN(C)Cc1ccccc1-c1nccc(Nc2ccc(F)cc2)n1,2%
COc1ccc([C@@H]2CC(=O)c3c(O)cc(O[C@H]4O[C@@H](CO[C@H]5O[C@@H](C)[C@@H](O)[C@@H](O)[C@@H]5O)[C@@H](O)[C@@H](O)[C@@H]4O)cc3O2)cc1O,1%
O=S(=O)(Nc1ccc(-c2nc3cccnc3s2)cc1)c1ccccc1F,-19%
Cc1cc(C)c2c(CC(=O)Nc3ccc(S(=O)(=O)N4CCCCC4)cc3)coc2c1,15%
CC(C)(C)N(NC(=O)c1ccccc1)C(=O)c1ccc(C(=O)N(NC(=O)c2ccccc2)C(C)(C)C)cc1,-7%
O=C(Cn1cc(SCc2c(F)cccc2Cl)c2ccccc21)N1CCCCC1,-4%
COc1ccccc1CN1CC(C(=O)NCCSc2nnnn2C)CCC1=O (stereo not drawn),18%
CCCCC1=CC2=C(c3ccco3)C(=O)C(C)(OC(=O)c3ccc(OC)cc3)C(=O)C2=CN1CCOC (stereo not drawn),-27%
COc1ccc(-c2cc(C(F)(F)F)nc(-n3cc(Br)cn3)n2)cc1,1%
Cc1ccc(C(=O)N2CCc3ccccc32)o1,4%
CC1CCN(CCCOc2ccc(OCc3ccccc3)cc2)CC1,-5%
Cc1cc(C)cc(-n2ccn(CC(=O)Nc3cc(C)ccc3C)c(=O)c2=O)c1,4%
CC1Cc2cc(/C(O)=C3/C(=O)C(=O)N(Cc4cccnc4)C3c3cccc(O)c3)ccc2O1 (stereo not drawn),-1%
Cc1ccc(C(=O)CCC(=O)CCC(=O)O)cc1,-8%

# Source: PubChem (National Center for Advancing Translational Sciences (NCATS))
